# Assay outcomes deposited in PubChem by several laboratories.
# eIF4H inh: inhibitors of RNA binding by human eIF4H. Q15056. eIF4H fluorescence polarization binding assay. inhibition, % at 35 µM. 0.94% of 290,000 active. AID 2012;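 active means 50% or more with normal probe brightness, or confirmed in later tests; about a fifth of its hits are not listed in these tables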;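 further: calls also rest on retests at 20 µM and on dose response follow-up; 0% = protein and probe with vehicle and 100% = probe without protein; strong numbers were not always called active; many hits fall short of the cut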
# UUG fidelity: yeast start codon fidelity modulation | S. cerevisiae UUG-firefly luciferase reporter, luminescence/redox ratio | activity score, % at 18.7 µM | 0.13% of 350,000 active | AID 602363;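 active means replicate mean at a twofold rise or more, about +100% in these data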;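 further: firefly luciferase made from a UUG start codon reports start codon fidelity; reporter light over untreated wells divided by growth signal over untreated wells; some hits fall short of that in this replicate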
# CSC inhib: cancer stem cell inhibition; cancer stem cell-like cells viability, luminescence; inhibition, % at 7.5 µM; 1.1% of 300,000 active; AID 2717;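 active means mean at 75% or more and at least half the replicates too; tested in HMLE shEcad cells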;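 further: 0% = median of negative and 100% = median of positive control wells; the first replicate is given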
# Env fusion inh: HIV envelope-mediated fusion inhibition. HeLa-JRFL Env/CEM21 cell fusion, luciferase. inhibition, % at 12.3 µM. 1.1% of 360,000 active. AID 651610;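 active means mean replicate inhibition score of at least 50 and every replicate individually at or above 50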;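 further: 0% = plate neutral controls and 100% = maraviroc near 300 nM; one replicate is shown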
# PABP FP inh: PABP-poly(A) binding inhibition; P11940; PABP-poly(A) RNA binding, fluorescence polarization; inhibition, % at 35 µM; 1% of 290,000 active; AID 2014;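 active means 50% or more with normal probe brightness, or confirmed in later tests; about a fifth of its hits are not listed in these tables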;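 further: calls also rest on retests at 20 µM and on dose response follow-up; controls were probe without protein and protein plus probe with vehicle; some compounds called inactive have numbers as strong as hits; many hits fall short of the cut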
# Target sequence (P11940 whole entry, looked up): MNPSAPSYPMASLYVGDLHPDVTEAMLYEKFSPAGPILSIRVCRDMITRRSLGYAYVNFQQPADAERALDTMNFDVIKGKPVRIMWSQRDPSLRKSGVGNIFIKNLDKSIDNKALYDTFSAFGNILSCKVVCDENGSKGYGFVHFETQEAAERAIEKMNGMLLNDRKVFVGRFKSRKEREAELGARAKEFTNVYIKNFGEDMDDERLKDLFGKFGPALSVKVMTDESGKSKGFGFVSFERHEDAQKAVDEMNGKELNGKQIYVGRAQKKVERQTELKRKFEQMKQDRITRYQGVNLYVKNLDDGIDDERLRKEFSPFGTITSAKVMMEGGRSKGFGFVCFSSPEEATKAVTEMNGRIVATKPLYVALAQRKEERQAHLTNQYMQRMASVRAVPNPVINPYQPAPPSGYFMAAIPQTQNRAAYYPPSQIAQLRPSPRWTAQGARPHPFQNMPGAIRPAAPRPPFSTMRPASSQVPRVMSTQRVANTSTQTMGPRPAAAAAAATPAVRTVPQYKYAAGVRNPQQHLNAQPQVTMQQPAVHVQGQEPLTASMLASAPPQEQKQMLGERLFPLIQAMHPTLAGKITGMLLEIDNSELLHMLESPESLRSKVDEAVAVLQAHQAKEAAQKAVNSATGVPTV
# Rce1 inh: inhibitors of yeast Ras-converting enzyme; Q03530; yeast membranes, quenched prenylated peptide cleavage fluorescence; calls only; 0.27% of 290,000 active; AID 2563;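 active means fall in fluorescence gain of 50% or more versus controls, with final raw signal at or below 3038400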;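 further: plate controls were neutral control wells for no effect and wells lacking membranes for full effect; tested at 10 µM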
# MT1-MMP act inh: MT1-MMP (human) activation inhibition | P50281 | HT1080 RFP-PRO-GFP cells, GFP/RFP ratio fluorescence, overnight; percent of plate control window, DMSO zero | GFP/RFP ratio change, % at 20 µM | 0.061% of 360,000 active | AID 651647;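 active means GFP/RFP ratio change of at least 30% with cell ATP level not reduced by more than half and red fluorescence within 50% of control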; further: strong numbers were not always called active
#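 Read-out: GFP/RFP fluorescence ratio; Test system: RFP-PRO-GFP reporter HT1080 cells; Compound dosing: single-point 20 µM compound, 1% DMSO; Times: overnight compound exposure at 37 °C.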
# MT1-MMP act inh RFP: also measured in MT1-MMP act inh; calls as there; RFP signal change, %; measured here: RFP expression control read;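 0 = vehicle wells; hits needed this value within 50% of zero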
# The depositor's hits bear a star; i = inactive; x = not tested or not shown.
1: O=C(COC(=O)c1ccc(O)cc1)Nc1cc(C(F)(F)F)ccc1N1CCOCC1
2: Cc1ccc(N2C(=O)N(CC(=O)Nc3ccc(C)c(C)c3[N+](=O)[O-])C(=O)C2C)cc1 (stereo unspecified)
3: COc1ccc(C2CC2/C(=N/OC(=O)c2cccs2)c2ccccc2)cc1 (stereo unspecified)
4: Cc1csc(NC(=O)CSc2nnc(C)s2)n1
5: COc1cccc(CNS(=O)(=O)c2cc3c(cc2Cl)NC(=O)CO3)c1
6: O=C(O)C1CCCCC1C(=O)Nc1ccc(OCc2ccccc2)cc1 (stereo unspecified)
7: COc1ccc(C(=O)COc2ccccc2N2C(=O)C3C4C=CC(C4)C3C2=O)cc1 (stereo unspecified)
8: COc1ccc(N2CCN(Cc3nc4ccsc4c(=O)[nH]3)CC2)cc1
compound no.	1	2	3	4	5	6	7	8
eIF4H inh	x	-3	-4	4	5	14	2	-4
UUG fidelity	-6	11	-1	-22	-11	-4	-20	7
CSC inhib	7	7	1	-6	-6	-1	-5	x
Env fusion inh	x	15	x	x	7	-27	x	-29
PABP FP inh	x	-8	-3	9	0	-2	5	-1
Rce1 inh	x	i	i	i	i	i	i	x
MT1-MMP act inh	4	-1	-1	6	1	0	3	-3
MT1-MMP act inh RFP	1	-6	1	3	4	-1	2	3

9: Cc1cc(N/C=C/C(=O)c2ccc(Br)cc2)no1
10: COc1cccc(C(=O)NC(=S)Nc2ccc(N(C)C)cc2)c1
11: CCSc1nnc(NC(=O)c2ccc(F)c(S(=O)(=O)N3CCOCC3)c2)s1
12: Cc1n[nH]c(C)c1CS(=O)(=O)c1ccccc1
13: COc1cc(/C(C)=N/N2CCOCC2)cc(OC)c1OC
14: COC(=O)CSc1nnc(CNc2ccc(F)cc2)o1
15: O=C(C1CCCC1)N1CCN(S(=O)(=O)c2ccc(F)cc2)CC1
16: CCCCn1c(N)c(N(CC)C(=O)c2ccc(C)cc2)c(=O)[nH]c1=O
compound no.	9	10	11	12	13	14	15	16
eIF4H inh	-10	16	x	-2	-8	-3	1	12
UUG fidelity	-20	-11	-12	x	x	-43	x	-17
CSC inhib	-2	2	x	x	-1	10	-5	-9
Env fusion inh	x	-39	-5	8	0	-12	-10	1
PABP FP inh	-12	5	x	-18	14	4	0	-4
Rce1 inh	x	i	x	i	i	i	i	i
MT1-MMP act inh	3	1	1	0	6	2	-6	0
MT1-MMP act inh RFP	1	1	-6	3	2	-1	-3	4

17: COc1ccc(C(=O)Nc2ccc(Cl)cc2F)cc1S(=O)(=O)N1CCCC1
18: Cc1cc(C)c(COc2ccc(/C=N/n3c(C)n[nH]c3=S)cc2)c(C)c1
19: O=C(CSCc1ccccn1)Nc1ccccc1
20: O=C1NC(=Nc2cccnc2)S/C1=C/c1ccc(F)cc1
21: CCc1ccc(NC(=O)CCCOc2cc(=O)n(C)c3ccccc23)cc1
22: S=C(NCCCN1CCOCC1)Nc1cccc(Cl)c1
23: O=C(Nc1ccc2ccccc2c1)c1cccnc1
24: CC(C)CN(C(=O)CN1C(=O)C2CCCCC2C1=O)c1c(N)n(Cc2ccccc2)c(=O)[nH]c1=O (stereo unspecified)
compound no.	17	18	19	20	21	22	23	24
eIF4H inh	x	-1	0	2	x	0	-5	-4
UUG fidelity	-12	x	-21	27	-21	-18	-24	-1
CSC inhib	-8	32	-6	55	x	-2	-11	-5
Env fusion inh	x	3	x	-27	-2	-16	x	8
PABP FP inh	x	6	-7	-8	x	-7	-6	3
Rce1 inh	x	i	i	i	x	i	x	x
MT1-MMP act inh	8	0	4	-16	15	-2	-9	-2
MT1-MMP act inh RFP	-10	-3	4	-8	10	1	-1	2

25: Cc1nc(C)c(C(=O)OCC(=O)N(C)c2ccccc2)s1
26: COc1ccc(-c2cc(C(=O)NCC3CCCO3)on2)cc1OC (stereo unspecified)
27: COc1ccc(N=Cc2nc(-c3ccccc3)oc2OC(=O)c2ccccc2)cc1
28: Cc1[nH]n(-c2cccc3ccccc23)c(=O)c1/C=N/c1sc2c(c1C#N)CCC2
29: O=S1(=O)c2ccc(Br)cc2N2CCC[C@@H]2CN1Cc1ccccc1
30: O=S(=O)(c1ccc(NC(=S)N2CCCCC2CO)cc1)N1CCOCC1 (stereo unspecified)
31: CC(=O)Nc1cccc(NS(=O)(=O)c2cc3c4c(c2)CCN4C(=O)CC3)c1
32: COc1ccc2cnnc(SCC(=O)Nc3ccc(C(C)=O)cc3)c2c1OC
compound no.	25	26	27	28	29	30	31	32
eIF4H inh	x	-14	-2	32	x	x	x	6
UUG fidelity	-19	-8	-25	-13	-14	-4	-8	-9
CSC inhib	x	-11	19	2	x	x	-5	4
Env fusion inh	7	-7	-21	x	2	-3	-6	x
PABP FP inh	x	-13	-6	36	x	x	x	10
Rce1 inh	x	i	i	i	x	x	i	i
MT1-MMP act inh	4	2	1	-5	-5	0	3	0
MT1-MMP act inh RFP	4	2	-1	3	-13	-3	4	6

# Overlap with the part before: four entries, then new ones.
29: O=S1(=O)c2ccc(Br)cc2N2CCC[C@@H]2CN1Cc1ccccc1
30: O=S(=O)(c1ccc(NC(=S)N2CCCCC2CO)cc1)N1CCOCC1 (stereo unspecified)
31: CC(=O)Nc1cccc(NS(=O)(=O)c2cc3c4c(c2)CCN4C(=O)CC3)c1
32: COc1ccc2cnnc(SCC(=O)Nc3ccc(C(C)=O)cc3)c2c1OC
33: Nc1nnc(CSCc2cccc(Br)c2)s1
34: COC(=O)c1cc(OC)c(OC)cc1NC(=O)C(C)Sc1ccc(C)cc1 (stereo unspecified)
35: O=C(NNC(=S)NC(=O)C12CC3CC(CC(C3)C1)C2)c1ccncc1
36: CCCCN(CCCC)CCCNC(=O)CN1C(=O)COc2ccc(S(=O)(=O)N3CCC(C)CC3)cc21
37: CCCc1cc(=O)oc2cc(OCC(=O)N3C[C@H]4C[C@@H](C3)c3cccc(=O)n3C4)c(Cl)cc12
38: CCOC(=O)Cn1nc(Cc2ccccc2)c2ccccc2c1=O
39: Nc1nc2c(s1)C(=O)CC(c1ccccc1)C2 (stereo unspecified)
40: Cc1nnc(Sc2c(N)n(C)c(=O)[nH]c2=O)s1
compound no.	29	30	31	32	33	34	35	36	37	38	39	40
eIF4H inh	x	x	x	6	11	4	0	2	-2	10	-16	4
UUG fidelity	-14	-4	-8	-9	-6	4	x	-19	-9	13	-10	-17
CSC inhib	x	x	-5	4	-4	-13	-11	1	0	13	2	-15
Env fusion inh	2	-3	-6	x	7	x	x	11	x	2	x	x
PABP FP inh	x	x	x	10	33	-10	12	1	12	4	-4	-1
Rce1 inh	x	x	i	i	i	i	i	i	x	i	i	i
MT1-MMP act inh	-5	0	3	0	9	3	-4	-3	3	0	3	-3
MT1-MMP act inh RFP	-13	-3	4	6	10	0	-12	-1	7	0	3	4

# A few values from the results shown.
# COC(=O)c1cc(OC)c(OC)cc1NC(=O)C(C)Sc1ccc(C)cc1 (stereo unspecified) | MT1-MMP act inh = 3
# O=C(NNC(=S)NC(=O)C12CC3CC(CC(C3)C1)C2)c1ccncc1 | PABP FP inh = 12
# CCCCN(CCCC)CCCNC(=O)CN1C(=O)COc2ccc(S(=O)(=O)N3CCC(C)CC3)cc21 | CSC inhib = 1
# Nc1nnc(CSCc2cccc(Br)c2)s1 | eIF4H inh = 11
# CCCc1cc(=O)oc2cc(OCC(=O)N3C[C@H]4C[C@@H](C3)c3cccc(=O)n3C4)c(Cl)cc12 | MT1-MMP act inh = 3
# Nc1nc2c(s1)C(=O)CC(c1ccccc1)C2 (stereo unspecified) | UUG fidelity = -10

# (listing goes on)
41: CC1CCN(C(=O)CSc2nc(C3CC3)nc3ccccc23)CC1
42: CN1CCCC1CCOC(C)(c1ccccc1)c1ccc(Cl)cc1 (stereo unspecified)
43: CC(C)(C)Nc1nc(Cl)nc(NC2CCCCC2)n1
44: COc1cc(/C=C/C(=O)NCc2nc3ccccc3[nH]2)cc(OC)c1OC
45: CCOC(=O)C1CCCN(C(=O)c2sc3nc(C)nc(N(CC)CC)c3c2C)C1 (stereo unspecified)
46: CNc1cncc(-c2cc(OC)c(OC)c(OC)c2)n1
47: CC(CN1C(C)CCCC1C)OC(=O)c1cccc(Br)c1 (stereo unspecified)
48: CC1CCN(S(=O)(=O)c2ccc(S(=O)(=O)N3CCC4(CC3)OCCO4)cc2)CC1
compound no.	41	42	43	44	45	46	47	48
eIF4H inh	-10	x	-8	-8	-6	x	-6	-4
UUG fidelity	x	-11	-5	-14	3	-20	-6	x
CSC inhib	18	x	-1	1	-12	x	-7	-7
Env fusion inh	36	15	14	-3	4	-1	17	7
PABP FP inh	-5	x	-10	-2	12	x	0	-19
Rce1 inh	i	x	i	x	i	x	i	i
MT1-MMP act inh	-6	-9	1	4	0	-1	4	1
MT1-MMP act inh RFP	-6	-6	-8	3	2	5	4	0

49: O=C(Cn1nc(-c2ccccc2)c2ccccc2c1=O)NN1CCOCC1
50: CN(c1ccccc1)S(=O)(=O)c1cc(C(=O)NCCCn2ccnc2)ccc1Cl
51: Cc1ccc(CNC(=O)CCNC(=O)Cn2ccc3ccccc3c2=O)o1
52: O=C(Nc1ccc(Cl)cc1C(F)(F)F)C(Sc1cccc[n+]1[O-])c1ccccc1 (stereo unspecified)
53: COc1ccc(-c2noc(=O)n2Cc2ccc(F)cc2Cl)cc1
54: O=C(O)CSc1cc(NS(=O)(=O)c2ccc(Br)cc2)c2ccccc2c1O
55: COc1cccc(OCC(=O)NNC(=O)c2ccc3ccccc3c2)c1
56: Cn1c(=O)c(=O)n(C)c2cc(S(=O)(=O)NCc3ccc(Cl)cc3)ccc21
compound no.	49	50	51	52	53	54	55	56
eIF4H inh	-1	x	-14	2	-4	6	-12	-4
UUG fidelity	-15	-24	-2	x	-15	-11	-14	x
CSC inhib	-9	x	11	-18	4	36	5	-9
Env fusion inh	-13	-1	-5	26	-29	-3	-4	9
PABP FP inh	4	x	-5	-4	11	7	-3	2
Rce1 inh	i	x	i	i	i	i	i	i
MT1-MMP act inh	-1	-1	4	4	-1	-10	-1	3
MT1-MMP act inh RFP	0	-2	4	-1	-1	5	0	5

57: COc1ccccc1NC(=O)Cc1noc(CSc2nnc(N)s2)n1
58: Cc1cc(/C=N/NC(=O)c2ccncc2)c(C)n1-c1ccccc1
59: COc1ccc(CC(=O)N2N=C(C)CC2(O)C(F)(F)F)cc1 (stereo unspecified)
60: COc1ccc(CCNC(=O)C2CCN(C(=O)c3ccc(OC)c(OC)c3)CC2)cc1
61: O=C(NCc1ccccc1)c1cc2ccccc2o1
62: OCC#CCSc1nnc(-c2ccc(Br)cc2)o1
63: CCOC(CCNC(=O)c1cn(C)c(=O)c2c1c1ccccc1n2C)OCC
64: Cc1cc(/C=C2\NC(=O)N(Cc3ccc(Cl)cc3)C2=O)c(C)n1C
65: CN(C)CCNC(=O)c1cc2c(=O)n(C)c3ccccc3c2n1C
66: O=C(NCCN1CCCC1)c1ccc(Cl)cc1
67: O=C(NN=C1CCCC1)c1[nH]c2ccc(Br)cc2c1-c1ccccc1
compound no.	57	58	59	60	61	62	63	64	65	66	67
eIF4H inh	4	5	-4	0	-14	-14	-1	14	-2	1	-5
UUG fidelity	-24	x	x	-7	4	-18	-14	x	-5	x	x
CSC inhib	13	10	x	-11	5	-7	-1	2	6	-2	70
Env fusion inh	x	-8	-4	16	x	4	24	-7	1	-15	-1
PABP FP inh	11	-1	-4	4	-5	-6	3	3	-12	11	9
Rce1 inh	i	x	i	i	i	i	i	x	i	i	i
MT1-MMP act inh	1	5	-4	4	2	9	0	-7	3	1	x
MT1-MMP act inh RFP	-1	5	4	-2	-1	10	-2	6	5	4	x
